HNF4A DNA FP: change in binding of human HNF4 alpha to DNA. P41235. HNF4a-FITC DNA binding, fluorescence polarization, 1 h. activity change, % at 10 µM. actives 0.3% (n = 360,000); in the data active = activity change above about 30%, passing the limit was not always enough;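 note: controls were the assay level and a saturating level of protein; the project sought stronger binding though the title names inhibitors; some compounds called inactive have numbers as strong as hits; positive values seem to mean higher polarization but the record does not say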
Target sequence (P41235 whole entry, looked up): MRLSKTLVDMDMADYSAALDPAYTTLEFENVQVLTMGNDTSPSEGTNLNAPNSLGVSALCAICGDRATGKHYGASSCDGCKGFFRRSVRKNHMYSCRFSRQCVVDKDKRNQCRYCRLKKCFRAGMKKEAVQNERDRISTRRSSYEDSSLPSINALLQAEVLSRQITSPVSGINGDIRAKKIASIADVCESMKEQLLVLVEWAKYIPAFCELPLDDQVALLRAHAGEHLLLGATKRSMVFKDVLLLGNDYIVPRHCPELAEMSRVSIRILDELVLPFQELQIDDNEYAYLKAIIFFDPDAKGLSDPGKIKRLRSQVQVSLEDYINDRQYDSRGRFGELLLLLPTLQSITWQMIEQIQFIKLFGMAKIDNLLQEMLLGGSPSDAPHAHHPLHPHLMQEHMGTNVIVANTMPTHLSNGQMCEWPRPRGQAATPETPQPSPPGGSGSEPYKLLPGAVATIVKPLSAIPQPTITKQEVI
FGF22 binding: FGF22 (human) thermal shift binding. recombinant FGF22 thermal shift, SYPRO orange fluorescence; percent of sucrose octasulfate shift, DMSO zero. calls only at 9.99 µM. actives 1.5% (n = 340,000). AID 651658;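 active = melting point raised past a set limit in the mean and every replicate; inconclusive = no clear call; three in four hits are not shown here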
Target sequence (Q9HCT0 whole entry, looked up): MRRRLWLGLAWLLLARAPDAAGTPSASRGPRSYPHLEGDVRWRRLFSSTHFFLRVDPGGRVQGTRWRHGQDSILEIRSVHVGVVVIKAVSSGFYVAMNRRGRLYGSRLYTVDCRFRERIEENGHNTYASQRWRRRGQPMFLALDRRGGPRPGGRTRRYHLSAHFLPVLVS
ALR H2O2 inh: blocks human ALR sulfhydryl oxidase activity | actives 3.8% (n = 290,000) | inhibition, % (concentration not given with the values) | purified ALR, DTT oxidation, H2O2 HRP-luminol luminescence | P55789;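 active = mean and each replicate at 75% or more; inconclusive = only one of the two met; inactive = neither met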;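 note: stock transfer was 7.5 nL into about 7.5 µL; 0% = neutral wells and 100% = wells with inactivated enzyme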
Target sequence (P55789 whole entry, looked up): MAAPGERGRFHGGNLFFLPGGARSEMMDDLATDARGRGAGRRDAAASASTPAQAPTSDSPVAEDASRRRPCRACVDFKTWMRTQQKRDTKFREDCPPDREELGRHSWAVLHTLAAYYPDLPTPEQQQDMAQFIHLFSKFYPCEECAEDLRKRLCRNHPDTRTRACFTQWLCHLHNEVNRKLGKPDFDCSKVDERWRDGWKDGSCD
rRNA inh HTS: inhibitors of bacterial rRNA selective over humanized ribosomes | E. coli WT GFP vs humanized-ribosome RFP mutants, fluorescence, 24 h; active compounds read low; DMSO median 0, no signal -100 | GFP signal change (wild-type ribosome), % (test concentration not listed) | actives 1.6% (n = 350,000);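 active = significant combined selectivity score with lowered wild-type GFP, culture density cut under 30%, mutant RFP and density less affected; inactive = any of these conditions unmet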; note: one replicate is shown; some compounds called inactive have numbers as strong as hits
E coli growth: blocks Escherichia coli growth; OD600 absorbance (concentration not given with the values); actives 0.21% (n = 330,000); OD600, 23 h; active compounds read low;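 active = OD600 absorbance below the run mean of sample wells minus 3.6 SD, in any replicate, cut at about 0.56 in these data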;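 note: stock transfer was 300 nL into about 60 µL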
MLL AF4-AF9 inh: blocks AF4 peptide binding to human AF9 | inhibition, % at 10 µM | actives 0.47% (n = 350,000) | AlphaScreen, biotin-AF4 peptide binding to FLAG-AF9 | AID 651704;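 active = every replicate reaching a set inhibition limit, whatever the replicate mean, cut at about 25% in these data; inconclusive = mean inhibition reaches that limit but some replicates miss it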;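 note: 0% = plate neutral control median and 100% = total signal loss; the record names both 10 and 1 µM as test concentration; the first replicate is given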
Vif A3G: HIV-1 Vif–A3G interaction blockers – biochemical, TR-FRET, GST-Vif 1-94, biotin-A3G peptide, dose response retest, primary screen (AID 1117319); TR-FRET GST-Vif / biotin-A3G peptide binding; higher % means a stronger effect; test concentration not given here; strong numbers were not always called active; inhibition, %; hits with a dose series show IC50 in µM; actives 0.57% (n = 260,000);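 active = above the screen mean plus three standard deviations and confirmed in dose response; inconclusive = results disagree or hit not tested in dose response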;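 note: Vif residues 1-94 fused to GST binding biotinylated APOBEC3G peptide 110-148; 0% = full assay without inhibitor and 100% = GST in place of GST-Vif; retest series ran down from 100 µM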
rRNA inh HTS OD600: also measured in rRNA inh HTS; calls as there; OD600 change, %; measured here: OD600 growth;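 optical density of the mix in the first replicate; 0 = DMSO median and -100 = no signal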
rRNA inh HTS RFP: second read-out of rRNA inh HTS, no call of its own (marks repeat the call); RFP signal change, %; measured here: RFP humanized mutant strains;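 first replicate; 0 = DMSO median and -100 = no signal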
Numbers without * were called inactive; i = inactive; ? = inconclusive; nt = no result given.

smiles	HNF4A DNA FP	Vif A3G	rRNA inh HTS	FGF22 binding	E coli growth	rRNA inh HTS RFP	ALR H2O2 inh	MLL AF4-AF9 inh	rRNA inh HTS OD600
O=C(C[C@H]1C[C@@H]2c3cc(NC(=O)CC4CC4)ccc3O[C@@H]2[C@H](CO)O1)NCc1ccccc1F	nt	nt	-2	i	nt	-0.9	nt	-1.5	4
COC(=O)Cc1c(C)nc2nc(NCc3cccc([N+](=O)[O-])c3)[nH]n2c1=O	3.4	-2%	nt	nt	0.77	nt	89*	nt	nt
O=C(Nc1ccc(F)cc1)C(c1ccccc1OC(F)(F)F)N1CCN(C(=O)c2ccco2)CC1 (configuration not stated)	1.2	nt	-7	i	nt	0.6	nt	nt	-7
CCCc1cn(S(=O)(=O)c2ccc(OC)cc2OC)nc1N	3.4	6%	5	nt	0.67	-0.1	98*	nt	1
COc1ccc2c3c([nH]c2c1)[C@H](CO)N(Cc1cccc(Cl)c1)CC31CN(C(C)=O)C1	nt	nt	-6	i	nt	-1.3	nt	-3.1	-4
Cc1ccc(NC(=O)CSc2nc3ncc(Cl)cc3[nH]2)c(C)c1	0.4	-8%	9	i	0.67	12	-1	-5.0	-7
O=C(CC(=O)Nc1ccccn1)Nc1ccccn1	-0.1	7%	nt	nt	0.64	nt	-9	nt	nt
O=C(NC1CCCC1)C1CCN(C(=O)c2ccc(Cl)cc2)CC1	1.4	nt	2	i	0.69	-0.9	nt	-4.1	-5
C[C@H](CO)N1C[C@H](C)[C@@H](CN(C)Cc2ccc3c(c2)OCO3)OCCCC[C@H](C)Oc2ccc(NC(=O)Nc3ccc(F)cc3)cc2C1=O	nt	nt	-16	i	nt	33	nt	4.7	-43
O=C(Cn1cnc(S(=O)(=O)N2CCCCC2)c1)Nc1ccc(OC(F)(F)F)cc1	-2.0	nt	1	i	0.66	-0.6	0	-3.4	8
CCOC(=O)C1=CNS(=O)(=O)NC1c1ccc(C#N)cc1 (configuration not stated)	-1.9	1%	14	i	0.65	2.4	nt	-0.8	4
CCCNC(=O)C1(C)CCN(C(=O)c2ccc(F)cc2Cl)C1 (configuration not stated)	0.1	nt	3	i	nt	-12	nt	-0.1	7

smiles	HNF4A DNA FP	Vif A3G	rRNA inh HTS	FGF22 binding	E coli growth	rRNA inh HTS RFP	ALR H2O2 inh	MLL AF4-AF9 inh	rRNA inh HTS OD600
Cc1cc(Nc2ccc(F)cc2)c2ccccc2n1	2.5	-3%	12	i	nt	0.6	nt	-1.0	1
CCN1CCN(C(C(=O)NC2CCCCC2)c2ccc(Cl)cc2)CC1 (configuration not stated)	-1.7	-7%	nt	nt	0.7	nt	1	nt	nt
C[C@@H]1CN([C@H](C)CO)C(=O)c2cc(Br)cnc2O[C@H]1CN(C)S(=O)(=O)c1ccccc1	nt	nt	-5	i	nt	-1.4	nt	-11	0
CC(C)CCOc1ccc(C(=O)O)cc1	1.6	2%	nt	nt	0.77	nt	-4	nt	nt
COc1cccc(-c2cc(C(=O)N3N=C(C)CC3(O)C(F)F)c3ccccc3n2)c1 (configuration not stated)	-1.1	14%	-22	i	0.72	1.4	nt	-11	-37
O=C(CN1CCOCC1)N[C@H]1CC[C@@H](CCNC(=O)C2CCC2)O[C@@H]1CO	nt	nt	1	i	nt	0.1	nt	-0.9	3
COc1cccc(CNC(=O)C[C@@H]2CC[C@H](NS(=O)(=O)c3ccccc3OC)[C@@H](CO)O2)c1	nt	nt	3	i	nt	0.7	nt	-0.9	2
O=C(CNc1ccc(Br)cc1)NC(=O)NC1CCCCC1	-3.1	-1%	0	i	0.67	4.3	nt	0.2	-6
O=C(C[C@@H]1CC[C@H]2[C@@H](COC[C@@H](O)CN2Cc2cccc(C(F)(F)F)c2)O1)NCc1ccc(F)cc1	nt	nt	-2	i	nt	2.0	nt	-0.8	-2
CCn1c(CSc2ncccn2)nnc1SCC(=O)N1CCCCC1	0.5	nt	18	i	0.61	1.0	0	-0.9	14
O=C(Nc1ccccc1F)N[C@H]1CC[C@@H](CCNC(=O)C2CCOCC2)O[C@H]1CO	nt	nt	-1	i	nt	-1.4	nt	-0.8	-9
CC(=O)Nc1ccc2c(c1)C(=O)N(C)[C@H]1CC[C@H](CC(=O)Nc3cccc(Cl)c3)O[C@@H]1CO2	nt	nt	-2	i	nt	-1.4	nt	-0.7	-6

smiles	HNF4A DNA FP	Vif A3G	rRNA inh HTS	FGF22 binding	E coli growth	rRNA inh HTS RFP	ALR H2O2 inh	MLL AF4-AF9 inh	rRNA inh HTS OD600
CCOc1ccc(C(C)=O)cc1COc1cccnc1[N+](=O)[O-]	2.5	nt	23	i	0.68	2.9	0	-4.7	3
COc1ccc(OC)c(C(c2nnnn2Cc2ccco2)N2CCN(C)CC2)c1 (configuration not stated)	3.1	nt	0	i	0.69	3.1	-11	-2.8	-17
COC(=O)c1cc2c(c3c4ccccc4n(S(=O)(=O)c4cccc(C)c4)c13)C(=O)N(Cc1ccccc1OC)C2	nt	nt	7	i	nt	8.5	nt	0.9	7
CCOC(=O)Cc1cc(-c2ccc(O)cc2)nc2ccc3ccccc3c12	-1.4	-7%	nt	nt	0.73	nt	14	nt	nt
O=[N+]([O-])c1ccc(NN=C2CCCCC2)c([N+](=O)[O-])c1	2.2	-10%	3	i	0.69	-1.9	nt	2.4	10
O=C(NCc1ccccc1Cl)C1CCCN1C(=O)NCc1ccccc1 (configuration not stated)	1.5	nt	15	i	0.67	-3.3	12	-3.6	5
O=C(Nc1nnc(-c2ccc(Cl)s2)o1)C1CC1	-1.8	-7%	-20	i	0.68	-6.9	-5	8.4	-17
CCc1ccc(CCC(=O)Nc2nnc(CC)s2)o1	0.2	3%	nt	nt	0.68	nt	3	nt	nt
COC(=O)Nc1ccc2c(c1)OCO2	0.4	4%	nt	nt	0.7	nt	nt	nt	nt
CC1CCCCN1C(=O)CSc1nc(-c2ccccc2)cc(=O)[nH]1 (configuration not stated)	3.2	3%	nt	nt	0.68	nt	9	nt	nt
O=C(CSCc1cnn(-c2ccccc2)c1-n1cccc1)NCc1cccs1	-1.5	?	nt	nt	0.73	nt	-9	nt	nt
COc1ccc(CN(C)C[C@H]2OCCCC[C@@H](C)Oc3ccc(N(C)C)cc3C(=O)N([C@H](C)CO)C[C@@H]2C)cc1	nt	nt	0	i	nt	-2.0	nt	8.7	-2

smiles	HNF4A DNA FP	Vif A3G	rRNA inh HTS	FGF22 binding	E coli growth	rRNA inh HTS RFP	ALR H2O2 inh	MLL AF4-AF9 inh	rRNA inh HTS OD600
O=C(N[C@@H]1CC[C@H](CCNS(=O)(=O)Cc2ccccc2)O[C@H]1CO)c1ccccc1F	nt	nt	4	i	nt	-2.9	nt	-4.8	-15
O=C(c1cccs1)n1nc(-c2ccco2)nc1SCc1ccccc1	nt	0%	nt	nt	0.75	nt	52	nt	nt
CCOC(=O)c1cccc(NC(=O)CSc2nnc(C)n2CC2CCCO2)c1 (configuration not stated)	-2.4	3%	0	i	0.66	-3.5	-1	-0.5	7
CO[C@@H]1CN(C)C(=O)c2cc(NC(C)=O)ccc2OC[C@@H](C)N(C(=O)CC2CC2)C[C@@H]1C	nt	nt	0	i	nt	0.3	nt	-0.4	2
N#C[C@@H]1N[C@@H](CO)[C@H]1c1ccc(C#Cc2ccc(F)cc2)cc1	nt	nt	0	i	nt	3.8	nt	-4.0	-12
COC(=O)Cc1ccc(NC(=S)NCCO)cc1	-0.2	-4%	5	i	0.67	0.0	-4	-6.6	12
COc1ccc(S(=O)(=O)N2CCOCC2)cc1NC(=O)COC(=O)C1COc2ccccc2O1 (configuration not stated)	-0.8	5%	7	i	0.62	1.9	-28	2.0	6
O=C(Nc1ccccc1NS(=O)(=O)c1ccc(F)cc1)C1CCC1	2.2	7%	-6	i	0.72	-2.5	-10	0.0	-2
N#Cc1ccc(C(=O)N2CCC3CC2c2cc(-c4ccc(F)cc4)ccc23)cc1 (configuration not stated)	-1.7	nt	-26*	i	nt	-4.1*	nt	0.0	-20*
Oc1ccc(Nc2nc(Cl)nc(NCc3ccco3)n2)cc1	-12	18%	-9	i	0.7	-4.0	99*	3.8	0
COC(=O)c1cn(-c2ccccc2)nc1-c1cccnc1	-2.9	17%	nt	nt	0.69	nt	-3	nt	nt
O=S(=O)(c1ccccc1)c1cnc(-c2ccccc2)nc1N1CCCC1	-1.1	10%	-4	i	0.64	-8.8	1	-5.0	-24

smiles	HNF4A DNA FP	Vif A3G	rRNA inh HTS	FGF22 binding	E coli growth	rRNA inh HTS RFP	ALR H2O2 inh	MLL AF4-AF9 inh	rRNA inh HTS OD600
Brc1ccccc1-n1nnc(-c2ccnc3ccccc23)n1	-1.4	nt	-4	i	0.81	-5.7	-18	-10	-2
CSCC[C@H](NC(=O)OC(C)(C)C)C(=O)N1CCC(C(=O)N[C@H](C(=O)O)C(C)C)CC1	0.8	-3%	1	nt	0.71	16	1	7.0	11
O=C(Nc1ccccc1C(=O)O)c1cncc(Br)c1	5.1	-3%	nt	nt	0.68	nt	49	nt	nt
C/C(=N\NC(=O)c1nnn(-c2nonc2N)c1-c1ccccc1)c1cccnc1	0.5	-3%	18	i	nt	7.4	-3	-2.8	19
CCOC(=O)/C=C1/SCC(=O)N1CC(=O)Nc1ccc2c(c1)CCC2	5.4	-7%	6	i	0.68	28	nt	4.0	9
CCOC(=O)N1CCN(C(=O)COc2ccccc2Cl)CC1	-1.3	18%	nt	nt	0.66	nt	0	nt	nt
C=CCC1(CC=C)CCCN1C(=O)CC1C(=O)NCCN1Cc1cccc(OC)c1OC (configuration not stated)	2.1	nt	-7	i	0.7	4.5	-10	3.0	-14
Cc1cc(C(=O)CN2C(=O)NC3(CCCCC3)C2=O)c(C)n1C	-5.7	-4%	11	i	0.7	-6.8	0	-2.1	10
COc1cccc(NC(=O)N(C)C[C@@H]2Oc3cc(-c4cccc(C(=O)N(C)C)c4)ccc3S(=O)(=O)N([C@@H](C)CO)C[C@@H]2C)c1	nt	nt	5	i	nt	-5.2	nt	0.2	11
COc1ccc(/C=C2/SC(=O)N(CCNC(=O)CC(NC(C)=O)c3ccccc3)C2=O)cc1 (configuration not stated)	0.2	3%	12	i	0.68	-0.1	nt	1.8	4
COc1ccccc1S(=O)(=O)N1CC[C@H]2[C@H](CO)Nc3ccc(-c4ccccc4)cc3[C@H]21	nt	nt	3	i	nt	8.3	nt	-3.9	-11
CCc1ccccc1NC(=O)c1ccc2c(O)c(S(=O)(=O)c3ccc(OC)cc3)c(=O)[nH]c2c1	1.5	2%	7	i	0.61	-3.0	5	-3.9	10

smiles	HNF4A DNA FP	Vif A3G	rRNA inh HTS	FGF22 binding	E coli growth	rRNA inh HTS RFP	ALR H2O2 inh	MLL AF4-AF9 inh	rRNA inh HTS OD600
COc1ccc(OCC(=O)NC(=S)Nc2ccc(S(=O)(=O)Nc3cc(C)on3)cc2)cc1	-2.7	1%	6	i	0.7	0.2	-8	-0.7	4
COc1ccc(CN(C)C[C@@H]2Oc3c(NS(C)(=O)=O)cccc3C(=O)N([C@@H](C)CO)C[C@@H]2C)cc1	nt	nt	-5	i	nt	-1.5	nt	-1.5	-12
Cc1noc(C)c1S(=O)(=O)N1CCCC(C(=O)N2CCc3ccccc3C2)C1 (configuration not stated)	1.4	6%	-5	i	0.74	5.3	nt	-0.2	-9
COCCNC(=O)C1(C)CCN(C(=O)c2ccc3sccc3c2)C1 (configuration not stated)	-0.7	nt	11	i	nt	0.8	nt	0.1	20
O=C(O)CCC(=O)Nc1ccc2c(c1)oc1ccccc12	5.0	5%	nt	nt	0.7	nt	32	nt	nt
C[C@@H](NC(=O)c1ncn2c1C(=O)NC[C@@H]2C)c1ccccc1	1.6	-5%	7	i	nt	-0.9	nt	-0.4	5

Only part of the results is shown; the hit share may differ from the screen's.
